# Bioassay records (PubChem BioAssay)
# VCAM-1 imaging = suppression of endothelial VCAM-1 upregulation – imaging, high-content imaging, pooled HUVEC, TNFa stimulus (AID 456) | HUVEC TNFa-induced VCAM-1 surface expression, immunofluorescence imaging; numbers were filed only for top-ranked candidate wells | inhibition, % at 5 µM; hits with a dose series show IC50 in µM | actives 0.2% (n = 10,000);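 active = top tenth filtered wells with inhibition above zero that passed visual or statistical confirmation; inactive = the rest, including hits rejected on review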;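 also: 0% = stimulated vehicle wells and 100% = unstimulated cells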
# VCAM-1 up imaging = boosters of cytokine-driven VCAM-1 levels – imaging, high-content imaging, pooled HUVEC, TNFa stimulus (AID 457). calls only. actives 0.2% (n = 10,000). Pooled HUVEC, TNFa-induced VCAM-1 immunofluorescence imaging; hits of this screen are not shown here;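 active = a top-ranked rise in VCAM-1 staining upheld on image or statistical review; inactive = the rest, including candidates rejected on review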;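 also: compounds tested at 5 µM in the well; cells exposed to compound for 24 hours before fixing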
# FPR ligand = ligands of human FPR, also counter-screen for FPRL1 ligands; actives 0.74% (n = 24,000); FPR-expressing cells, fluorescent ligand binding, flow cytometry; P21462; inhibition, %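 (tested at 6.7 µM)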;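 also: 0% = buffer wells and 100% = receptor blocker peptide wells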
# Target sequence (P21462 whole entry, looked up): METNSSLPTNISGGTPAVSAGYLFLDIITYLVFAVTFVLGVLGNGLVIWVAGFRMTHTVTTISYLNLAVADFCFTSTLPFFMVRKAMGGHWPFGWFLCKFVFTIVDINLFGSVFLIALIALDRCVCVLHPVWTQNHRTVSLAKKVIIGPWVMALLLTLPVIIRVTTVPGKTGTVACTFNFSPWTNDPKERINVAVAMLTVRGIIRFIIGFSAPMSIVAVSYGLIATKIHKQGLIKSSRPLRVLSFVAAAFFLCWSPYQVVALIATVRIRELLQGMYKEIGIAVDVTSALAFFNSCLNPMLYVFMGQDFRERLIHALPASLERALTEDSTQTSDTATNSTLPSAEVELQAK
# VCAM-1 down = suppression of endothelial VCAM-1 upregulation – cell-based, plate reader, pooled HUVEC, TNFa stimulus (AID 454) | inhibition, % at 5 µM | HUVEC TNFa-induced VCAM-1 surface immunofluorescence, plate reader; numbers were filed only for top-ranked candidate wells | actives 0.2% (n = 10,000);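 active = compound among top-ranked inhibitors of TNF-induced VCAM-1 adhesion protein staining, with the hit upheld by image or statistical review; inactive = the rest, including hits rejected on review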;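 also: 0% = TNFa with vehicle and 100% = cells without TNFa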
# FPRL1 ligand = human FPRL1 ligand, with FPR counter-screen; inhibition, %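 (tested at 6.7 µM)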; actives 0.3% (n = 24,000); FPRL1-expressing cells, fluorescent ligand binding inhibition, flow cytometry;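 also: 0% = buffer alone and 100% = receptor blocker peptide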
# Target sequence (P25090 whole entry, looked up): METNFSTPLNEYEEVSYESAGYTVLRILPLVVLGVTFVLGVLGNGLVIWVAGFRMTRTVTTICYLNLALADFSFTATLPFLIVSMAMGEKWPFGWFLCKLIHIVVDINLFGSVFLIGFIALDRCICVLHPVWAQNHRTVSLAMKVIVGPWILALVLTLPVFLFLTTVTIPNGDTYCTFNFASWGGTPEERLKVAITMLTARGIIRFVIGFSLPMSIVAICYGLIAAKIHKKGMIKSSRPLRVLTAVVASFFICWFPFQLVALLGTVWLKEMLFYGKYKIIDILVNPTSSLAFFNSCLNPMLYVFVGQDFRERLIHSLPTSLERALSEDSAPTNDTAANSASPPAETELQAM
# An asterisk follows results filed as active; i = inactive; x = not tested or not shown.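 The calls were made as follows, unless noted: active = mean above 30%; inconclusive = self-fluorescent; inactive = the rest.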 The list is partial; count on the stated rates, not on these rows.
SMILES,VCAM-1 imaging,VCAM-1 up imaging,FPR ligand,VCAM-1 down,FPRL1 ligand
Cc1ccc(NCc2nnc(SCC(=O)NCc3ccco3)n2CC2CCCO2)cc1Cl (stereo unspecified),i,i,-12,i,2
O=C(CSc1nnc(CNC(=O)c2cccs2)o1)NCCc1ccccc1,i,i,-2,i,1
CCOc1ccc(N(CC(=O)Nc2ccc(OC)cc2)S(=O)(=O)c2c(C)noc2C)cc1,x,x,-1,x,-2
Cc1nnc(C)c2c(C)n(-c3ccc(Br)cc3)c(C)c12,i,i,-4,i,0
CN(CC(=O)N1CCCCCC1)S(=O)(=O)c1ccc(Br)s1,x,x,-4,x,-4
CCOC(=O)c1cccc(NC(=O)CSc2nnc(-c3cccnc3)n2C)c1,i,i,12,i,2
O=C(NCCc1ccc(Cl)cc1)C1CCN(S(=O)(=O)N2CCCCC2)CC1,x,x,6,x,-1
CCOc1ccc(-n2ccnc2SCC(=O)Nc2nnc(CC)s2)cc1,x,x,-1,x,-17
O=C(NCC1CCCO1)c1ccc(C(=O)NCC2CCCO2)cc1 (stereo unspecified),i,i,-10,i,1
CCCSc1nc(N)cc(=O)[nH]1,x,x,1,x,-3
CCOc1ccc(CNC(=O)C2CCN(S(=O)(=O)N3CCCC3)CC2)cc1OC,x,x,3,x,6
O=C1OC(NC(=O)c2ccccc2)C(N2CCOCC2)=C1Cl (stereo unspecified),x,x,0,x,1
CC(CCc1ccccc1)NC(=O)C1CCCN(C(=O)c2cc3sccc3n2C)C1 (stereo unspecified),x,x,8,x,1
O=C(O)c1cccn1Cc1ccccc1F,x,x,-1,x,-3
Cc1ccc(CCN2CC(C(=O)NCCN3CCOCC3)CC2=O)cc1 (stereo unspecified),x,x,2,x,7
OC1(c2cccc(C(F)(F)F)c2)CCNCC1,i,i,-4,i,-5
COc1ccc(NS(=O)(=O)c2c(C)[nH]c(=O)[nH]c2=O)c(OC)c1,i,i,2,i,2
CCN1CCN(c2ncnc3c2sc(=S)n3-c2ccccc2)CC1,x,x,13,x,10
O=C(NC1CCCCCCC1)C1CCCN(S(=O)(=O)c2cnc[nH]2)C1 (stereo unspecified),x,x,-2,x,0
CCOc1ccc(CCNC(=O)C2CCN(c3nnc(-n4cccc4)s3)CC2)cc1OCC,x,x,-1,x,-4
O=C(C1CC(=O)N(C2CCCC2)C1)N1CCN(c2ccc(F)cc2)CC1 (stereo unspecified),x,x,-5,x,-1
CCOC(=O)c1ccc(NC2c3ccccc3C(=O)N2c2cccnc2)cc1 (stereo unspecified),x,x,0,x,-5
CCOc1ccc(-n2cc(C(=O)N3CCN(C)CC3)c3cc(OC)c(OC)cc3c2=O)cc1,i,i,-1,i,5
CSc1nc2ccc(Nc3nc(N4CCOCC4)nc(N4CCOCC4)n3)cc2s1,i,i,-5,i,-1
NC(=O)C1CCN(C(=O)C2CCN(S(=O)(=O)c3ccccc3)CC2)CC1,x,x,2,x,-5

# Single entries from the entries so far.
# CCOc1ccc(-n2cc(C(=O)N3CCN(C)CC3)c3cc(OC)c(OC)cc3c2=O)cc1 – FPRL1 ligand = 5
# COc1ccc(NS(=O)(=O)c2c(C)[nH]c(=O)[nH]c2=O)c(OC)c1 – FPR ligand = 2

# Continuation:
SMILES,VCAM-1 imaging,VCAM-1 up imaging,FPR ligand,VCAM-1 down,FPRL1 ligand
CCOC(=O)c1ccc(COC(=O)CCc2nc3ccccc3[nH]c2=O)o1,i,i,5,i,-4
COc1ccc(N2CCN(C(=O)CN3C(=O)C4CC=CCC4C3=O)CC2)cc1 (stereo unspecified),i,i,-3,i,7
CCC(=O)Nc1c(C#N)c2nc3ccccc3nc2n1C1CCCCC1,x,x,11,x,-6
CC12CC(NC(=O)N1c1ccc(C(=O)N3CCN(c4ccccn4)CC3)cc1)c1ccccc1O2 (stereo unspecified),x,x,7,x,0
CC(=O)Oc1cc2c(C(=O)NCCN3CCOCC3)c(C)oc2c2ccccc12,x,x,2,x,2
CCc1ccc(-c2nc(CSCC(=O)N3CCN(c4ccccn4)CC3)c(C)o2)cc1,x,x,16,x,3
O=C(COc1ccccc1Cl)OCC(=O)N1CCN(S(=O)(=O)c2ccccc2)CC1,i,i,6,i,8
Cn1cc(C(=O)NCCc2ccccc2)c(=O)c2cc(S(=O)(=O)N3CCOCC3)ccc21,x,x,3,x,4
CN(C)S(=O)(=O)c1ccc(C(=O)OCCCN=C2NS(=O)(=O)c3ccccc32)cc1,x,x,-2,x,2
O=C(C1CCC(CNc2c(N3CCCCC3)c(=O)c2=O)CC1)N1CCc2ccccc2C1 (stereo unspecified),i,i,-8,i,0
O=C(Nc1ccc(N2CCOCC2)cc1)c1cc2ccccc2o1,i,i,-2,i,5
Cc1cc(=O)n2nc(N3CCCC3C(=O)NCc3ccccn3)sc2n1 (stereo unspecified),x,x,-2,x,-3
Cc1csc(NC(=O)c2ccoc2C)n1,i,i,2,i,1
CCCc1n[nH]c2c1/C(=N/O)CC(c1ccccc1)C2 (stereo unspecified),i,i,7,i,-8
CC(C)COc1ccc(C2NC(=O)NC2=O)cc1 (stereo unspecified),i,i,2,i,4
CCOC(=O)N1CCC(NC(=O)c2cc(C(=O)NC3CCCC3)ccc2CO)CC1,i,i,0,i,-2
Cc1cc(C(=O)NCCCN2CCN(C3CCCCC3)CC2)n(-c2ccccc2)n1,i,i,-8,i,0
CCOc1ccc(C(=O)CN2CCN(S(=O)(=O)c3ccc(Cl)cc3)CC2)cc1,x,x,3,x,-2
Cc1cnc(-c2nnc(N(C)C(=O)C3CCOC3)s2)cn1 (stereo unspecified),i,i,-1,i,-2
COCCOC(=O)c1cc(C(=O)c2cc(F)ccc2O)coc1=N,i,i,-6,i,-8
CCC(=O)N(Cc1ccco1)c1nc(-c2cc(OC)ccc2OC)cs1,i,i,-10,i,-3
Cc1ccc(-n2c(=O)[nH]c3c(C(N)=O)nc(CC(C)C)nc32)cc1,i,i,-7,i,2
CCn1ncc(C2=NOC(C(=O)Nc3cnn(C45CC6CC(CC(C6)C4)C5)c3)C2)c1C (stereo unspecified),x,x,14,x,-3
CCc1ccccc1NC(=O)c1nnn(CC(=O)Nc2cccc(C)c2)c1N,x,x,-6,x,-6
Cc1nc2c(C#N)c(C)[nH]n2c(=O)c1Cc1ccccc1,x,x,32*,x,2

# Part of the list above, with each value named.
CCOc1ccc(N(CC(=O)Nc2ccc(OC)cc2)S(=O)(=O)c2c(C)noc2C)cc1
  VCAM-1 imaging = x
  VCAM-1 up imaging = x
  FPR ligand = -1
  VCAM-1 down = x
  FPRL1 ligand = -2
O=C(C1CCC(CNc2c(N3CCCCC3)c(=O)c2=O)CC1)N1CCc2ccccc2C1 (stereo unspecified)
  VCAM-1 imaging = i
  VCAM-1 up imaging = i
  FPR ligand = -8
  VCAM-1 down = i
  FPRL1 ligand = 0
Cc1ccc(NCc2nnc(SCC(=O)NCc3ccco3)n2CC2CCCO2)cc1Cl (stereo unspecified)
  VCAM-1 imaging = i
  VCAM-1 up imaging = i
  FPR ligand = -12
  VCAM-1 down = i
  FPRL1 ligand = 2

# (cont.)
SMILES,VCAM-1 imaging,VCAM-1 up imaging,FPR ligand,VCAM-1 down,FPRL1 ligand
CCOc1ccc2cc(C#N)c(SCC(=O)N3CCC(C)CC3)nc2c1,69%*,i,2,i,-2
O=c1c(Cc2ccccc2O)c(O)nc2n1CCCS2,x,x,16,x,-2
CCC(=O)N1CCc2cc(Br)cc(S(=O)(=O)NCCN3CCCCC3C)c21 (stereo unspecified),x,x,0,x,-2
CCN1C(=O)c2cccc3c(NC(=O)c4cccc(N5C(=O)CCC5=O)c4)ccc1c23,x,x,2,x,0
CCOC(=O)N1CCN(C(=O)c2ccc3c(=O)n(CCc4ccccc4)c(=S)[nH]c3c2)CC1,x,x,-1,x,-5
Cc1[nH]c(=O)[nH]c1C(=O)CCCCC(=O)OCC(=O)Nc1ccccn1,x,x,0,x,0
CC(=O)N(c1ccc(C)cc1)C1C=CS(=O)(=O)C1 (stereo unspecified),x,x,2,x,8
COc1ccc(NC(=O)CCCN2C(=O)C3C4C=CC(C4)C3C2=O)c(OC)c1 (stereo unspecified),i,i,-1,i,0
Cn1c(C(=O)NCCCN2CCOCC2)cc2c(=O)n(C)c3ccccc3c21,x,x,9,x,0
CC(C)CCn1cnc2c(cnn2-c2ccc(F)cc2)c1=O,x,x,12,x,5
CCOC(=O)C(NCc1ccccc1OC)(NC(C)=O)C(F)(F)F (stereo unspecified),i,i,-1,i,8
COC(=O)c1ccc(CSc2nnc(CNC(=O)c3ccccc3F)o2)o1,x,x,-2,x,-2
O=C1C2ON(c3ccccc3)C(c3ccncc3)C2C(=O)N1c1ccc(N2CCOCC2)cc1 (stereo unspecified),x,x,10,x,15
COc1ccc(N(CC(=O)Nc2cccc(C)c2)S(=O)(=O)c2c(C)n[nH]c2C)cc1,x,x,2,x,-1
Cc1ccc(NC(=O)C2CCN(S(=O)(=O)c3cccc4nonc34)CC2)nc1,x,x,3,x,-6
CC1=NCCN1S(=O)(=O)c1cc(Cl)ccc1Cl,x,x,-1,x,0
O=C1c2ccccc2C(Nc2ccc(F)c(Cl)c2)N1Cc1ccco1 (stereo unspecified),i,i,0,i,-3
Cc1ccccc1-c1nc(CS(=O)CC(=O)NCCN2CCOCC2)c(C)o1 (stereo unspecified),x,x,-1,x,9
O=C1CC(N2CCOCC2)C(=O)N1c1ccc2c(c1)OCO2 (stereo unspecified),i,i,-18,i,-13
COc1ccccc1NC(=O)c1nnn(Cc2ccccc2)c1NC(C)=O,x,x,2,x,3
COc1cccc(CNC(=O)CCS(=O)(=O)c2cccc3nonc23)c1,x,x,6,x,2
Cc1ccc(C)c(S(=O)(=O)NCc2cccnc2)c1,i,i,-5,i,0
COc1cccc(NC(=O)c2oc3ccccc3c2NC(=O)C(C)(C)C)c1,x,x,-2,x,0
CCCCN(CC)CCCNC(=O)CC1Oc2ccccc2NC1=O (stereo unspecified),x,x,-7,x,10
CN(C)C(=O)CN(c1ccc(F)c(Cl)c1)S(C)(=O)=O,i,i,-6,i,-1

# Further compounds follow.
SMILES,VCAM-1 imaging,VCAM-1 up imaging,FPR ligand,VCAM-1 down,FPRL1 ligand
CCOc1ccc(C2NC(=O)c3n[nH]c(C)c32)cc1 (stereo unspecified),x,x,-3,x,-7
Cc1cc(NCCN2CCOCC2)n2nc(C)c(-c3ccccc3)c2n1,i,i,0,i,-3
Cc1cc(Cl)ccc1NC(=O)CSc1nnc(Cc2cccs2)n1Cc1ccco1,i,i,3,i,-3
O=C(O)C1CC=CCC1C(=O)Nc1cc(Cl)ccc1Cl (stereo unspecified),i,i,-4,i,7
CCOc1ccc(C2c3c(oc4ccccc4c3=O)C(=O)N2c2ccc(C)cn2)cc1OC (stereo unspecified),x,x,21,x,4
Cc1cccn2c(=O)c(C=NCc3ccccc3)c(NCCO)nc12,x,x,-11,x,-1
O=C1CCc2cc(S(=O)(=O)N3CCC(C(=O)NC4CCCC4)CC3)ccc2N1,x,x,-6,x,-2
CCOc1cc(C(=O)N(C)Cc2cc3ccccc3[nH]c2=O)cc(OCC)c1OCC,i,i,-2,i,-1
O=C(CSc1nc2cc(S(=O)(=O)N3CCOCC3)ccc2o1)NC1CCCc2ccccc21 (stereo unspecified),i,i,-23,i,-6
c1ccc2c(c1)CNC1(CCCCC1)C2,i,i,2,i,-4
CCOC(=O)c1c(O)c2ccccc2n(-c2ccccc2)c1=O,x,x,6,x,-4
O=C(COc1ccc(S(=O)(=O)NC2CCCCC2)cc1)NCc1ccccn1,i,i,-3,i,1
CCn1cc(C2=NOC(C(=O)Nc3ccc4c(c3)OCO4)C2)c(C)n1 (stereo unspecified),x,x,-5,x,2
CCOc1ccccc1C1C(C(=O)Nc2ccccc2OC)=C(C)Nc2nnnn21 (stereo unspecified),x,x,5,x,-4
CCC(=O)N1CCN=C1SCc1ccc(F)cc1,x,x,0,x,-4
CCOC(=O)N1CCN(S(=O)(=O)c2ccc(C(=O)Nc3nc4ccc(F)cc4s3)cc2)CC1,x,x,4,x,-3
N#Cc1ccccc1Cn1c(=O)n(Cc2ccc(C(=O)NCc3ccco3)cc2)c(=O)c2sccc21,i,i,-1,i,-1
OCc1nc2ccccc2n1CC(O)Cn1ccc2ccccc21 (stereo unspecified),i,i,37*,i,51*
Cc1cccc(-n2nc3c(c2NC(=O)c2ccc(S(=O)(=O)N4CCOCC4)cc2)CSC3)c1C,x,x,2,x,-9
CC1(C)NC(=O)N(CN2C(=O)NC(C)(C)C2=O)C1=O,i,i,14,i,2
O=C(c1ccc(Cn2cc(Cl)cn2)o1)N1CCN(Cc2ccc3c(c2)OCO3)CC1,x,x,7,x,6
Cc1oc2cc3oc(=O)c4c(c3cc2c1C)CCC4,x,x,-5,x,-17
Fc1ccccc1-c1nc(NCCCN2CCOCC2)c2ccccc2n1,i,i,-4,i,2
COc1ccc(CCNC(=O)Cn2c(=O)oc3ccccc32)cc1OC,x,x,2,x,-4
